Screens deposited in PubChem by National Center for Advancing Translational Sciences (NCATS).
Cruzain inh Det – blocks cruzain activity in presence of Triton detergent; P25779; purified cruzain, Z-FR-AMC fluorescence, 0.01% Triton; Potency, µM, without a hit: max response, negative = inhibition, most hits filed as inhibitors; 0.43% of 200,000 active; active means well fitted curve in the direction sought with a large enough effect; inconclusive means small, poorly fitted or top-dose-only effect, or another doubt; inactive means no such curve, though single readings can be large; an effect the other way counts as inactive or inconclusive;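 further: plate controls were neutral wells for no effect and buffer without enzyme for full effect; nearly all actives have a fitted effect of over 40% in size; top concentration of the series not given in the record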
Target sequence (P25779 123-467 limits assumed): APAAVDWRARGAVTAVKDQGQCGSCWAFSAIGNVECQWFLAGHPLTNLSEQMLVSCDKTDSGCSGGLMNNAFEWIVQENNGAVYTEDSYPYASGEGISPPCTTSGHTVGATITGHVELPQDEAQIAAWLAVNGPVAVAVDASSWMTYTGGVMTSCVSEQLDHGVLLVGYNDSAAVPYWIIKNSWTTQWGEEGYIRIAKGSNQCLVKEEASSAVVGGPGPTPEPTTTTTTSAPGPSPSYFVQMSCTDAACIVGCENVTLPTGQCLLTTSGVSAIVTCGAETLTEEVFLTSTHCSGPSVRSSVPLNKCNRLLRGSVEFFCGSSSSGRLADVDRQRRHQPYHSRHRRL
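In this qHTS format, compounds are incubated with 1.5 nM cruzain for 15 min at room temperature before 2 uM Z-FR-AMC is added. Release of AMC is followed at 360/450 nm, and progress is taken as the 60 s fluorescence difference.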
StopGo reporter – lowers the luciferase signal of an FMDV 2A StopGo reporter; human cells with a luciferase reporter of 2A StopGo recoding; control for the full effect not named in the record; Potency, µM (top dose mostly 57.9 µM), for the others: top-dose signal change, negative = less light; 1.2% of 410,000 active; active = well fitted falling curve with a large enough effect; inconclusive = small, poorly fitted or top-dose-only effect; inactive = no such curve, though single readings can be large or run the other way; tested in HEK293T cells; further: on the % scale 0 is the no-effect control and ±100 the full control effect; nearly all actives have a fitted effect of over 45% in size; luciferase light after 4 h
NS1 function inh – inhibitors of influenza NS1 protein function. Potency, µM (titrated, usually from 46.1 µM), without a hit: top-dose activity, positive = more growth. 0.4% of 270,000 active. S. cerevisiae slowed by influenza A NS1, growth recovery by OD600; further: actives are rising curves; nearly all actives have a fitted effect of over 50% in size
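A cell-based growth assay was used: compounds that relieve NS1-induced slow growth of budding yeast raise OD600. Assay medium was yeast nitrogen base with ammonium sulphate and -URA supplement, pH 6.0, with 2% galactose.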
LASV entry inh – inhibitors of Lassa virus binding or cell entry. 1.2% of 300,000 active. Potency, µM (doses to about 37.9 µM), for the others: at the highest dose activity change, negative = inhibition, usual class: inhibitors. Lassa virus pseudotype entry inhibition, cell reporter; control for the full effect not named in the record; active means well fitted inhibition curve with a large enough effect; inconclusive means small, poorly fitted or top-dose-only effect, or effect the other way; inactive means flat fitted curve, though single readings scatter; tested in HEK293 cells; further: on the % scale 0 is the no-effect control and ±100 the full control effect; nearly all actives have a fitted effect of over 50% in size; luciferase read-out
Cruzain inh noDet – cruzain (T. cruzi) inhibition without detergent; purified cruzain, Z-FR-AMC fluorescence, no detergent; Potency, µM, without a hit: max response, negative = inhibition, most hits filed as inhibitors; 2.3% of 200,000 active; AID 1476; active means well fitted curve in the direction sought with a large enough effect; inconclusive means small, poorly fitted or top-dose-only effect, or another doubt; inactive means no such curve, though single readings can be large; an effect the other way counts as inactive or inconclusive;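 further: plate controls were enzyme without inhibitor for no effect and buffer without enzyme for full effect; nearly all actives have a fitted effect of over 40% in size; top concentration of the series not given in the record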
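Purified cruzain at 1.5 nM, pre-incubated 15 min with compound at room temperature in 100 mM sodium acetate pH 5.5, 5 mM DTT, 0.00005% Triton X-100. Reaction started with 2 uM Z-FR-AMC; AMC fluorescence increase over 60 s gives rate.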
SARS PLP yeast – inhibitors of SARS-CoV papain-like protease in yeast | 0.19% of 330,000 active | S. cerevisiae expressing SARS-CoV PLpro, growth rescue; control for the full effect not named in the record | Potency, µM (top dose mostly 32.9 µM), inactives show at the top dose activity, positive = growth rescue; further: 0% is about no effect; nearly all actives have a fitted effect of over 55% in size; growth read by luminescence after 48 h
RE007 growth inh – less growth of the S. pombe RE007 Vpr strain; S. pombe RE007 Vpr strain, BacTiter-Glo ATP luminescence, 24 h; control for the full effect not named in the record; Potency, µM (series often up to 92.2 µM), for inactives: top-dose activity change, negative = less growth; 0.21% of 360,000 active; active = well fitted falling curve with a large enough effect; inconclusive = small, poorly fitted or top-dose-only effect; inactive = no such curve, though single readings can be large or run the other way;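 further: on the % scale 0 is the no-effect control and ±100 the full control effect; nearly all actives have a fitted effect of over 50% in size; the assay follows cell death caused by Vpr and the record does not say whether a fall means rescue or toxicity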
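Fission yeast RE007 carrying one integrated HIV-1 vpr copy, seeded at OD 0.01 in PMG+AL medium with 23 nL pinned compound. Grown 24 h at 30 degrees; viability read by BacTiter-Glo luminescence after 5 min.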
MARV entry inh – Marburg virus entry inhibition. AID 540276. 1.8% of 300,000 active. Marburg virus pseudotyped entry inhibition, cell reporter; control for the full effect not named in the record; about a third of the inactives were read at about 46 µM. Potency, µM (top dose mostly 37.8 µM), without a hit: at the top dose activity change, negative = inhibition, hits mostly inhibitors; active = well fitted inhibition curve with a large enough effect; inconclusive = small, poorly fitted or top-dose-only effect, or effect the other way; inactive = flat fitted curve, though single readings scatter; tested in HEK293 cells; about a fifth of its hits are not listed in these tables; further: on the % scale 0 is the no-effect control and ±100 the full control effect; luciferase read-out
The depositor's hits bear a star; ? = inconclusive; · = not tested or not shown; & = joins results of further samples; [ ] = another dose, or the depositor's remark. Unless noted, the call rests on the fitted dose curve; in most records, active means well fitted rising curve with a large enough effect; inconclusive means small, poorly fitted or top-dose-only effect; inactive means no such curve, though single readings can be large or run the other way. Potency means the concentration at half of the fitted maximal effect.

SMILES	Cruzain inh Det	StopGo reporter	NS1 function inh	LASV entry inh	Cruzain inh noDet	SARS PLP yeast	RE007 growth inh	MARV entry inh
Cc1cc(C(=O)NNC(=O)/C=C/c2ccco2)c(C)o1	·	-6.4%	·	18.6%	·	4.0%	-5.4%	3.6%
O=C(COC(=O)C1=COCCO1)Nc1cccc(Oc2ccccc2)c1	-1.7%	-23.8%	-12.0%	-11.3%	13.9%	13.1%	10.9%	-3.6%
CCc1ccc(NC(=S)N2CCCCCCC2)cc1	·	49.0%[activator]	·	-1.8%	·	-2.0%	?	5.1%[46.1 µM]
COc1ccc(NC(=O)Nc2c(C)n(C)n(-c3ccccc3)c2=O)c(OC)c1	·	-9.7%	28.3%	1.4%	·	16.8%	3.5%	?
Cc1ccccc1Cn1ccc(NC(=O)c2cc3nc(-c4ccco4)cc(C(F)(F)F)n3n2)n1	-2.8%	-9.1%	-18.3%	1.8%	?	8.4%	-12.4%	-11.8%&-11.8%
Cn1cccc1C(=O)NC(=O)COC(=O)c1cc(Cl)ccc1[N+](=O)[O-]	·	-20.6%	0.7%	·	·	-3.6%	-3.4%	·
CC[C@H](C)[C@@H](CN[C@H](CCCCNC)CNC)NCC1CCCC1	·	-2.7%	6.4%	·	·	0.9%	18.0%	·
CCn1c(=O)c(C(=O)NNC(=O)Cc2ccccc2)c(O)c2ccccc21	·	13.8%	12.3%	6.9%[46.1 µM]	·	5.5%	2.2%	?
CCN(CC)CCOC(=O)c1ccc(NC(=O)Cn2ncc3c2-c2cc(C)ccc2OC3)cc1	-3.2%	-4.9%	·	·	1.4%	·	·	-4.1%[46.1 µM]
Cc1cc(C)c(S(=O)(=O)NCc2cn3c(C)csc3n2)cc1C	0.3%	4.5%	?	10.1%	-18.7%	1.5%	-4.7%	-17.1%
COc1ccccc1N1CCN(/N=C(\C)c2ccccc2O)CC1	·	11.0%	4.6%	·	·	0.1%	-11.7%	·
CCN(C(=O)c1ccc(=O)n(C)n1)c1c(N)n(Cc2ccccc2)c(=O)[nH]c1=O	·	-11.4%	·	6.6%	·	-1.7%	-12.8%	0.5%
O=c1cc(CSc2nnnn2-c2ccccc2)nc2scc(-c3ccccc3)n12	-3.2%	-5.6%	-10.7%	1.0%	25.1µM*	-0.4%	7.5%	-3.3%
COc1ccc(-c2nc(SCC(=O)NCC3CCCO3)c(-c3ccc(Cl)cc3)[nH]2)cc1 (stereo not drawn)	-2.8%	-4.6%	·	-7.1%[46.1 µM]	0.8%	·	·	-4.4%[46.1 µM]
COC(=O)C(Cc1c[nH]c2ccccc12)NC(=O)CNC(C)=O (stereo not drawn)	4.0%	-5.6%	-0.9%	7.2%	-2.6%	17.9%	3.0%	7.9%
COc1ccc(N2CCN(C(=O)CCS(=O)(=O)c3ccc(C)cc3)CC2)cc1	·	0.0%	-1.5%	5.4%	·	-0.1%	?	-6.8%
Cc1cc(C)nc(SC(C(=O)O)c2ccccc2)n1 (stereo not drawn)	-2.3%	1.9%	1.4%	18.0%	-1.5%	-21.8%	1.8%	17.6%
Cc1ccc(-c2nc3c(=O)n(-c4ccccc4)c4c(c(=O)n(C)c(=O)n4C)c3o2)cc1	·	3.9%	2.3%	-4.6%	·	-0.2%	13.4%	12.4%
Cc1ccccc1NC(=O)C[n+]1cc(-c2ccccc2)n2c1CCC2	·	17.5%	3.3%	?	·	0.1%	2.5%	10.1%
Cc1cc(C)c2oc(C(=O)Nc3ccc(S(=O)(=O)Nc4nccs4)cc3)cc(=O)c2c1	·	10.3%	-0.2%	·	·	1.3%	-1.0%	·
O/N=C1\CCCc2nnc3c(c21)CCCC3	1.4%	-18.5%	-4.2%	-9.7%	-6.6%	3.3%	16.6%	0.4%
CC(NC(=O)COc1cccnc1[N+](=O)[O-])c1ccc(Cl)cc1Cl (stereo not drawn)	·	-6.2%	0.4%	·	·	8.0%	-11.5%	·
CNc1snc(C)c1C(=O)OCC(=O)Nc1ccc(C)cc1F	·	?	·	-7.4%[46.1 µM]	·	-2.8%	12.8%	?
CC(OC(=O)/C=C/c1cccc(Cl)c1)C(=O)NC1CCCCC1C (stereo not drawn)	·	-17.5%	·	-1.6%	·	-0.9%	9.0%	23.6%
Cc1ccccc1OCCNC(=O)c1ccco1	·	12.2%	-13.3%	16.2%	·	-6.8%	-8.9%	12.6%[46.1 µM]
COc1ccc(N2CCN(CCCNC(=O)C3(S(=O)(=O)c4ccc(Cl)cc4)CC3)CC2)cc1	2.9%	?	-4.7%	-20.3%	-7.5%	-9.1%	11.5%	?
Cc1c(C(=O)O)cccc1-n1c(C)cc(/C=N/Nc2ccc([N+](=O)[O-])cn2)c1C	·	?	8.3%	·	·	-0.3%	-10.8%	·
COc1cccc(C(=O)NCCN2C(=O)S/C(=C/c3cccs3)C2=O)c1OC	·	-13.9%	-5.7%	?	·	-1.0%	-6.2%	?
COc1cc(NC(=O)c2cc(Cl)c(OC)c(Cl)c2)ccc1NC(=O)c1cc2ccccc2o1	2.6%	-19.4%	·	-10.0%[46.1 µM]	-9.5%	·	·	·
COc1ccc(-c2n(Cc3ccccc3)c3ccccc3[n+]2Cc2ccccc2)cc1	·	?	-0.3%	8.2µM*	·	-0.3%	11.1%	5.8µM*
Cc1nn(Cc2ccccc2)c(C)c1C(=O)Nc1ccc(N2CCOCC2)cc1	-0.1%	0.9%	3.7%	2.8%	8.3%	-1.1%	7.7%	11.0%
COc1cc2ccccc2cc1C(=O)N(CCN(C)C)c1nc2ccc(C)cc2s1	·	-15.3%	7.9%	?	·	-0.5%	6.3%	4.47µM*
O=C(NC(Cc1ccc2c(c1)OCO2)C(=O)NC(Cc1ccccc1)C(=O)O)c1ccccc1 (stereo not drawn)	1.1%	-4.1%	1.4%	-0.4%	0.4%	9.3%	-4.7%	8.5%&8.5%
Cc1cccc(C(=O)NCc2ccco2)c1	·	10.1%	16.2%	26.5%[46.1 µM]	·	4.6%	10.1%	?
CC(C)(C)c1ccc(SCCc2cccnc2)cc1	·	63.7%[activator]	-6.4%	·	·	-1.3%	9.0%	·
Cc1ccc(-c2nnn(Cc3nc(N)nc(N4CCOCC4)n3)n2)cc1	2.9%	0.0%	-11.7%	-0.1%	4.0%	3.0%	7.3%[3.69 µM]	4.6%
Nc1c(C(=O)N/N=C/c2cccnc2)oc2nc(-c3ccccc3)cc(-c3ccco3)c12	·	-12.9%	5.9%	-8.3%	·	1.7%	0.6%	-21.4%[46.1 µM]
Cc1ccc2cc(CCNS(=O)(=O)c3ccc(F)cc3)c(=O)[nH]c2c1C	·	?	2.2%	·	·	0.3%	11.7%	·
CCN1CCc2c(sc(NC(=O)c3ccc(S(=O)(=O)N4CCCC(C)C4)cc3)c2C(=O)OC)C1 (stereo not drawn)	-2.6%	-13.5%	·	-13.4%[46.1 µM]	-9.2%	·	·	·
C=CCn1c(C)nnc1SCC(=O)c1[nH]c(C)c(C(C)=O)c1C	·	-4.3%	·	-3.8%	·	-1.9%	-11.6%	1.2%
COc1ccccc1N1CC(C)(C)C(=O)N(C(=O)c2ccc(C)cc2)C1=S	·	-21.8%	-9.6%	1.5%	·	0.3%	-11.4%	-2.3%
CN(C(=O)COC(=O)/C=C/c1ccc2c(c1)OCO2)c1c(N)n(Cc2ccccc2)c(=O)[nH]c1=O	·	7.1%	·	-26.4%	·	-0.6%	-8.6%	2.4%
COc1cc(OC)c(-c2nn3c(-c4cccnc4)nnc3s2)cc1OC	-1.6%	·	-43.1%	·	?	-0.3%	·	3.2%
Cc1cccc(NC(=O)/C(C#N)=C\c2ccc(C(=O)O)cc2)c1	·	?	·	0.9%	·	3.2%	0.7%	-0.3%[46.1 µM]
CC1CCCN(S(=O)(=O)c2ccc([N+](=O)[O-])cc2)C1 (stereo not drawn)	·	-10.8%	13.4%	·	·	2.2%	4.4%	·
COc1ccc(S(=O)(=O)NCCCCOc2ccc(Cl)cc2)cc1	·	-18.7%	-56.7%	·	·	-3.0%	-2.6%	·
O=S(=O)(NCc1ccccn1)c1cc(OCC(F)(F)F)ccc1OCC(F)(F)F	·	103.8%[activator]	4.9%	·	·	0.4%	0.0%	2.1%
OC(CNCc1ccccc1F)COc1cccc2ccccc12 (stereo not drawn)	·	10.4%	-4.9%	16.4%[46.1 µM]	·	-5.0%	-3.0%	?
N=c1c2c3c(sc2ncn1N)CCCC3	·	-12.8%	0.4%	14.0%[46.1 µM]	·	-2.3%	-12.4%	-0.2%[46.1 µM]
O=C(NNC(=O)C1CCN(S(=O)(=O)c2ccccc2)CC1)c1ccccc1O	·	-13.7%	3.6%	·	·	?	-1.6%	·
O=C(Nc1c(C(=O)Nc2cccc(F)c2)oc2ccccc12)c1cc2ccccc2o1	-2.6%	11.5%	·	-1.8%[46.1 µM]	15.8µM*	·	·	0.7%[46.1 µM]
Cc1cc(=O)oc(C)c1C(=O)N1CCN(Cc2ccc3c(c2)OCO3)CC1	0.6%	-11.6%	8.7%	1.9%	12.0%	-0.9%	9.0%	-7.9%
O=C(Nc1cccc(Cl)c1)c1ccc(Cn2cc(Cl)cn2)cc1	-8.0%	13.7%	-20.4%	3.6%	2.3%	-53.8%	·	?
O=C(c1cccc(C(F)(F)F)c1)C1CCCN(C(=O)/C=C/c2cnc[nH]2)C1 (stereo not drawn)	·	-16.5%	7.0%	-5.4%	·	-2.9%	-21.6%	17.2%
Clc1ncn(C23CC4CC(CC(C4)C2)C3)n1	2.6%	-8.0%	-4.8%	10.4%	1.9%	-1.9%	-4.2%	-15.6%
COC(=O)Cc1[nH]n(-c2nc3ccccc3s2)c(=O)c1C(C)=Nc1ccc(OC)cc1	·	?	5.3%	·	·	12.7%	-10.1%	-0.3%
COc1ccc(OC)c(C2C(C(=O)c3cccs3)=C(O)C(=O)N2c2cc(C)on2)c1 (stereo not drawn)	-3.7%	21.4%	?	?	-13.0%	0.7%	0.3%	-1.1%
